BJeLR lethal – kills HRASV12-expressing BJeLR cells. AID 1554. BJeLR (HRASV12) viability, CellTiter-Glo ATP luminescence, 48 h; reference of the scale not given here. 300,000 tested, 0.17% active. inhibition, % (no concentration beside the values);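 active = replicate mean above 50%; inconclusive = above 50% but judged a plate artefact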;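 note: 50 nL library stock added to about 25 µL; numbers are from one replicate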
PrP UTR inh – inhibition of PrP 5' UTR reporter expression; inhibition, % (concentration not given with the values); 340,000 tested, 0.35% active; cell-based PrP 5' UTR mRNA reporter, plate reader;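 active = every replicate at 50% or more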;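 note: 0 = median of the neutral control wells; tested in H4 reporter cells; numbers are from one replicate; inactives centre near -14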
Mtb hypoxia inh – inhibitors of hypoxia-regulated fluorescent reporter in Mycobacterium tuberculosis; M. tuberculosis hypoxia-regulated fluorescent reporter, fluorescence; fluorescence inhibition, % (concentration not given with the values); 300,000 tested, 0.1% active; AID 1159583;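 active = 35 to 45% if threefold the growth effect, above 45% if 1.5-fold the growth effect; inactive = the rest, general growth blockers included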;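 note: wells of about 50 µL received 100 nL stock; 0% = vehicle wells and 100% = reference inhibitor wells; whole bacteria with a GFP reporter of the hypoxia response; strong numbers were not always called active; many hits fall short of the cut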
Autofluor counter – flagged as autofluorescent in microsphere protease counterscreen; 360,000 tested, 3.1% active; AID 624483; compound autofluorescence counterscreen, microsphere flow cytometry; stronger effect = higher value; fluorescence intensity (no concentration beside the values);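 active = at least 3 SD above the mean of all compounds, about 16000 in these data; inconclusive = too few beads counted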;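 note: 100 nL of 1 mM stock went into each well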
RN4220 kill – S. aureus RN4220 growth inhibition; inhibition, % (no concentration beside the values); 330,000 tested, 0.33% active; OD600, 16 h;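 active = z-score of -3 or lower and OD600 up to 0.18 on both plates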;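 note: plate controls were untreated cells for no effect and reference antibiotic for full effect; stock transfer was 100 nL into about 80 µL; one replicate is shown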
Sa ugtP lethal – growth inhibition of S. aureus ugtP deletion strain. S. aureus RN4220 ugtP deletion, OD600 growth, 16 h; some inactives read as strong as hits. growth inhibition, % (concentration not given with the values). 330,000 tested, 0.54% active. AID 1259309;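 active = z-score under -3 and OD600 up to 0.15 on both plates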;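 note: plate controls were untreated wells for no effect and antibiotic for full effect; wells of about 80 µL received 100 nL stock; the first replicate is given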
Mtb hypoxia inh growth – recorded beside Mtb hypoxia inh, whose call it bears; growth inhibition, %; measured here: M. tuberculosis growth (absorbance);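 0% = vehicle and 100% = reference antibiotic; read after six days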
An asterisk follows results filed as active; ? = inconclusive; nt = not tested or not shown.

canonical_smiles	BJeLR lethal	PrP UTR inh	Mtb hypoxia inh	Mtb hypoxia inh growth	Autofluor counter	RN4220 kill	Sa ugtP lethal
Cc1ccc2c(C)c(C(=O)N3CCN(Cc4ccccn4)CC3)oc2c1C	2	-21	10	15	5917	2.8	-2
Cc1ccc(C(=O)NN2C(=O)/C(=C/c3cccn3C)SC2=S)cc1	3	-16	5	2	7064	4.8	-10
C/C(=N\NC(=O)c1c[nH]c2ccccc12)c1ccc2c(c1)OCO2	-5	-23	nt	nt	2553	nt	nt
CN1CCC(N(C)C(=O)c2cccc(S(=O)(=O)N3CCOCC3)c2)CC1	nt	2	2	12	?	-0.8	1
NC1=NC(=O)C(CC(=O)NCc2ccccc2)S1 (stereo not given)	-6	-17	-1	7	2112	4.0	14
O=C(O)c1c[nH]c2c([N+](=O)[O-])cccc2c1=O	nt	-19	-19	4	3332	6.6	6
CCN(CC)CCNC(=O)c1cc([N+](=O)[O-])c(N(C)C)cc1OC	-7	-14	-8	1	4200	-2.8	0
CC(=O)c1cccc(OCc2cc(C(=O)NCCC3=CCCCC3)no2)c1	-7	-59	12	1	5606	2.5	2
CCN1CCN(CC(=O)Nc2nc3ccc(C)cc3s2)CC1	-4	-18	3	-3	3465	3.6	12
COc1ccc(NS(=O)(=O)c2ccc3c(c2)oc(=O)n3C)cc1Cl	8	-3	7	-7	2728	6.7	4

Further results follow.
canonical_smiles	BJeLR lethal	PrP UTR inh	Mtb hypoxia inh	Mtb hypoxia inh growth	Autofluor counter	RN4220 kill	Sa ugtP lethal
O=C(CSc1nnc(CN2CCCCCC2=O)n1-c1ccccn1)NCC(F)(F)F	1	-10	-2	0	9321	4.0	3
COc1ccc(-c2csc(Nc3ccccc3)[n+]2CC(O)c2ccc([N+](=O)[O-])cc2)cc1 (stereo not given)	6	-5	-3	-3	4615	-0.1	2
Cc1ccc(S(=O)(=O)NNC(=S)NC(=O)c2ccc([N+](=O)[O-])cc2)cc1	5	6	-2	4	1971	1.6	8
Cc1ccc(-n2nc(-c3ccco3)cc2C(=O)O)cc1	0	-15	4	13	7164	3.7	11
CC(=NNC(=O)C1=NNC(=O)C1C)c1cccs1 (stereo not given)	nt	nt	1	2	nt	4.1	0
FC(F)(F)c1nc2ccccc2c2nc3ccccc3n12	-12	-16	2	6	2635	2.6	-5
O=C(COc1cc2oc(=O)c3c(c2cc1Cl)CCC3)Nc1cccnc1	-2	-25	-7	1	6241	-0.2	-5
Cc1[nH]c2ccccc2c1/C=N/NC(=O)Cc1cccs1	-4	-24	nt	nt	8987	nt	nt
Cc1cc(=O)n2c3ccccc3n(CC(O)CN3CCOCC3)c2c1C#N (stereo not given)	-1	-24	-7	3	3982	0.0	2
CC1Cc2ccccc2N1C(=O)CSc1nn2c(=O)c(C(C)(C)C)nnc2s1 (stereo not given)	3	13	8	9	4690	0.1	0

Later entries:
canonical_smiles	BJeLR lethal	PrP UTR inh	Mtb hypoxia inh	Mtb hypoxia inh growth	Autofluor counter	RN4220 kill	Sa ugtP lethal
CN1C(=O)C(CC(=O)Nc2ccccc2)SC1=Nc1nccs1 (stereo not given)	nt	nt	-5	-7	nt	0.5	0
Cc1cccc(NC(=O)COc2coc(CN3CCc4ccccc4C3)cc2=O)c1	5	-2	11	0	?	-3.3	8
Oc1c(C(c2ccc(F)cc2)N2CCc3ccccc3C2)sc2ncnn12 (stereo not given)	-2	-12	1	7	5262	-6.3	4
CCOc1ccc(CCNC(=O)C2CCN(S(=O)(=O)CC)CC2)cc1OCC	-3	-20	12	4	9250	3.8	-4
CC(=O)Nc1ccccc1NC(=O)C/C(C)=N/NC(=O)c1ccccn1	-5	-8	nt	nt	2178	nt	nt
CCCC(=O)Nc1c(C(=O)OCC)oc2ccccc12	6	-9	4	3	3331	3.2	10
COc1ccc(N(C(C)C(=O)NN=Cc2ccc(OC(C)C)cc2)S(C)(=O)=O)cc1 (stereo not given)	nt	nt	4	12	nt	3.2	3
CC(C(=O)NCCCc1ccccc1)n1cccc1C(=O)c1ccccc1 (stereo not given)	-3	-14	2	-2	5405	3.4	-3
CCc1c(C(=O)NNC(=S)Nc2ccc(S(=O)(=O)Nc3ncccn3)cc2)csc1C	1	16	-2	11	4980	1.5	-2
COc1cc2c(cc1OC)CN(S(=O)(=O)c1cccs1)CC2	2	-7	13	6	2834	6.1	9

(cont.)
canonical_smiles	BJeLR lethal	PrP UTR inh	Mtb hypoxia inh	Mtb hypoxia inh growth	Autofluor counter	RN4220 kill	Sa ugtP lethal
Cc1cc(S(=O)(=O)N2CCN(CC(=O)NC(C)(C#N)C3CC3)CC2)ccc1Br (stereo not given)	nt	-16	6	8	nt	2.8	7
O=c1[nH][nH]c(C(F)(F)F)c1C=Nc1ccccc1Cl	3	-5	4	11	3834	3.3	1
O=S(=O)(Nc1ccc(Cc2ccncc2)cc1)c1ccc(Br)cc1	12	-37	3	0	11276	-0.2	3
C=CCC1(CC=C)CCCN1C(=O)c1cc(COc2ccc(F)c(F)c2)on1	0	-28	2	-18	4321	4.4	-6
CCOC(=O)C1(Cc2cccc(OC)c2)CCN(Cc2cccc(OC)c2OC)CC1	5	-13	4	-4	4857	1.9	0
CC(=NNC(=O)COc1ccc2ccccc2c1)c1cccs1	nt	nt	2	9	nt	3.4	-12
N/N=C(\c1ccccc1)C12CN3CN(CN(C3)C1)C2	-1	-15	nt	nt	2118	nt	nt
Cc1cc2cc(C(c3nnnn3Cc3ccco3)N3CCc4ccccc4C3)c(=O)[nH]c2cc1C (stereo not given)	1	-28	-4	5	3356	15	0
COC(=O)[C@@]1(Cc2ccc(OC)cc2)C2c3cc(C(=O)N(C)C)[nH]c3CC2CN1C(=O)c1ccccc1 (stereo not given in full)	nt	nt	-2	1	nt	-2.7	-2
CCc1cc(=O)oc2cc(OCC(=O)N(CC)CC)c(Cl)cc12	5	-36	nt	nt	5956	1.4	-5

Whole records, quoted from the list.
Results for CCOC(=O)C1(Cc2cccc(OC)c2)CCN(Cc2cccc(OC)c2OC)CC1 = BJeLR lethal: 5; PrP UTR inh: -13; Mtb hypoxia inh: 4; Mtb hypoxia inh growth: -4; Autofluor counter: 4857; RN4220 kill: 1.9; Sa ugtP lethal: 0
Results for C=CCC1(CC=C)CCCN1C(=O)c1cc(COc2ccc(F)c(F)c2)on1 = BJeLR lethal: 0; PrP UTR inh: -28; Mtb hypoxia inh: 2; Mtb hypoxia inh growth: -18; Autofluor counter: 4321; RN4220 kill: 4.4; Sa ugtP lethal: -6

Further results follow:
canonical_smiles	BJeLR lethal	PrP UTR inh	Mtb hypoxia inh	Mtb hypoxia inh growth	Autofluor counter	RN4220 kill	Sa ugtP lethal
COc1ccc(OC)c(NC(=O)C(=O)N/N=C(\C)CC(=O)Nc2ccc(Cl)cn2)c1	-1	-1	nt	nt	5472	nt	nt
C#CCNC(=O)C1=C[C@@H](c2ccccc2)C[C@@H](OCc2ccc(CO)cc2)O1	-1	-8	nt	nt	4241	nt	nt
CC(C)CC1(C2CCCC2)NC(=O)NC1=O (stereo not given)	nt	-18	12	2	4150	1.6	-1
Cc1c(C)n2c(SCC(=O)NC3CCCC3)nnc2[nH]c1=O	2	-10	-6	7	?	1.3	8
COc1ccc(-c2csc(NC(=S)NC(=O)c3cc4ccccc4o3)n2)cc1Br	-6	-30	nt	nt	5077	nt	nt
CC(c1ccccc1)N1C(=O)c2ccc(C(=O)NCc3ccco3)cc2C1=O (stereo not given)	-2	-82	nt	nt	4371	6.6	19
Cc1cccc(C)c1-n1nnnc1C(C)(C)N1CCN(N=O)CC1	-8	-2	7	4	6425	5.2	9
O=S(=O)(c1cccs1)N1CCC(CO)(Cc2ccc(Cl)cc2)CC1	0	-14	14	7	4055	5.0	-15
O=C(COc1ccc(S(=O)(=O)N2CCCC2)cc1)N1CCCCC1	-2	-7	2	2	3864	3.0	3
Cc1ccc(NC(=O)C(C)OC(=O)c2nc(Cl)ccc2Cl)cc1S(=O)(=O)N1CCOCC1 (stereo not given)	nt	2	7	8	2966	5.1	-3

More results:
canonical_smiles	BJeLR lethal	PrP UTR inh	Mtb hypoxia inh	Mtb hypoxia inh growth	Autofluor counter	RN4220 kill	Sa ugtP lethal
CC(C)NC(=O)Cn1c(SCC(=O)c2ccc(F)cc2)nc2ccccc21	3	0	4	3	4223	0.6	-2
COc1cc2c(cc1OC)C(C)N(CC(=O)Nc1ccc(S(=O)(=O)N3CCCC3)cc1)CC2 (stereo not given)	5	-20	-1	5	5180	3.8	0
CC(=O)Nc1ccccc1/C=C/c1ccc2c(C)ccc(O)c2n1	1	-19	-2	4	2472	-1.6	-18
O=C(O)c1ccc2cccnc2c1O	2	-1	4	-4	5020	3.8	2
CC(OC(=O)CN1C(=O)c2ccccc2C1=O)C(=O)NC1CCCCC1 (stereo not given)	-1	-14	nt	nt	4720	nt	nt
Cc1cc(C)c(N(C(=O)Cn2nnc3ccccc32)C(C(=O)NC(C)(C)C)c2ccsc2)c(C)c1 (stereo not given)	-4	-20	13	6	9094	1.5	5
O=C1/C(=C/c2ccncc2)SC(=S)N1Nc1ccccc1	22	nt	7	-6	5349	7.4	6
O=C(O)c1cc(S(=O)(=O)N2CCCCC2)sc1Cl	1	-19	5	2	2395	5.9	5
c1ccc(-n2cnnc2SCc2cn3cccnc3n2)cc1	-11	-31	4	16	10420	0.3	-4
COc1ccc(NC(=O)CCc2nnc3ccc(N4CCC(C)CC4)nn23)cc1	1	-10	-1	11	5619	1.1	-2

Going on with the list:
canonical_smiles	BJeLR lethal	PrP UTR inh	Mtb hypoxia inh	Mtb hypoxia inh growth	Autofluor counter	RN4220 kill	Sa ugtP lethal
CCOC(=O)C1CCN(C(=O)CNC(=O)c2nn(-c3ccc(OC)c(OC)c3)c(=O)c3ccccc23)CC1	-12	-17	-3	2	4013	2.3	0
CC1(C)CN(S(=O)(=O)OCC(Cl)(Cl)Cl)C(=O)N1	3	-7	7	4	3088	8.9	2
Cc1cc(S(=O)(=O)Nc2ccc(C(=O)NCCCN3CCOCC3)cc2)ccc1F	4	-23	4	13	5200	2.8	3
CCOc1ncccc1C(=O)OCc1ccc(C#N)cc1	-2	-21	7	10	2408	4.1	2
CCCc1cc(=O)oc2cc(OCc3cccc(OC)c3)c(Cl)cc12	-5	-7	7	0	2518	1.5	0
CCCCCCCCCOC(=O)C1N2C(=O)C(NC(=O)COc3ccccc3)C2SC1(C)C (stereo not given)	nt	nt	15	3	nt	0.1	23
COc1cc(OC)cc(-c2c(C#Cc3ccsc3)c3cc(-c4ccc(OC)cc4F)ccc3n2C)c1	nt	-12	21	9	2996	6.1	4
NC(=O)COC(=O)c1ccc(S(=O)(=O)N2CCCCCC2)cc1	3	-16	10	10	2930	-14	-2
CN(C)c1ccc(C=NNC(=S)NCc2ccccc2)cc1	nt	nt	4	9	nt	11	17
CCOC(=O)N=S(N)(=O)c1ccc(Cl)cc1 (stereo not given)	4	-7	15	9	3587	6.1	4

Following part
canonical_smiles	BJeLR lethal	PrP UTR inh	Mtb hypoxia inh	Mtb hypoxia inh growth	Autofluor counter	RN4220 kill	Sa ugtP lethal
COc1ccc(CNC(=O)Nc2cccc(C)c2)cc1	-10	-24	nt	nt	4543	1.6	0
O=C(CNC(=O)C1(c2ccccc2)CC1)Nc1ccc(F)c(F)c1	5	-12	6	6	5017	0.4	4
CN(C)c1nc(-c2ccccc2)ns1	-11	-22	6	5	5553	4.1	2
COc1cccc(CC2(CO)CCCN(Cc3ccc(C)s3)C2)c1 (stereo not given)	2	-15	-3	3	2376	4.2	1
CC1(C)Cc2nc3oc4c(=O)n(CC(=O)Nc5ccc(Cl)cc5)cnc4c3cc2CO1	-3	-16	8	2	3727	6.2	13

Source: PubChem BioAssay

Hits appear at their usual frequency; any-hit rate near 4.1%.
